Vif TR-FRET: inhibitors of Vif binding to APOBEC3G peptide, primary screen, biochemical, TR-FRET, GST-Vif 1-94, biotin-A3G peptide, dose response retest (AID 1117319). TR-FRET GST-Vif / biotin-A3G peptide binding; higher % means a stronger effect; test concentration not given here; strong numbers were not always called active. inhibition, %; hits with a dose series show IC50 in µM. hit rate 0.57% among 260,000;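 active means above the screen mean plus three standard deviations and confirmed in dose response; inconclusive means results disagree or hit not tested in dose response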;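 further: Vif residues 1-94 fused to GST binding biotinylated APOBEC3G peptide 110-148; 0% = full assay without inhibitor and 100% = GST in place of GST-Vif; retest series ran down from 100 µM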
LANA-H2A inh: blockers of LANA interaction with H2A/H2B – biochemical, FP readout, HTS, primary screen; Protein LANA1 (Human herpesvirus 8 type P (isolate GK18)), Q9QR71; cell-free LANA-H2A/H2B peptide, fluorescence polarization; inhibition, % (no concentration beside the values); hit rate 0.6% among 320,000; AID 2629, 2010; in the data active means inhibition mostly above about 10%, no sharp cut-off; inactive means mostly below about 6.7%;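 further: stock transfer was 7.5 nL into about 10 µL; 0% = median of vehicle wells and 100% = median of positive control wells; one replicate is shown; the record names a cut of 25% in any replicate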
A1 inh: caspase 3/7 activation in MEF A1-2A-BIM cells, primary screen, A1 inhibitor project, cell-based, luminescence, HTS | Caspase-Glo 3/7 luminescence, 3 h; percent of clofoctol response, vehicle zero | caspase activation, % (test concentration not listed) | hit rate 0.066% among 330,000 | AID 2462, 2010;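 active means over half of replicate activation scores above 10%, or exactly half above 10 with the replicate mean above 10; inconclusive means replicate mean below 10 yet half the replicates above 10; inactive means over half of replicates below 10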;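 further: wells of about 30 µL received 50 nL stock; many hits fall short of the cut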
Ecoli growth: E. coli growth inhibition, primary screen, OD600; AID 1053175, 2014; hit rate 0.21% among 330,000; Escherichia coli growth, 23 h; stronger effect = lower value; OD600 absorbance (no concentration beside the values);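 active means OD600 absorbance below the run mean of sample wells minus 3.6 SD, in any replicate, cut at about 0.56 in these data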;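 further: stock transfer was 300 nL into about 60 µL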
B2AR ag: beta2AR agonists driving receptor internalization, primary screen, cell-based, FAP fluorogen, flow cytometry; Beta-2 adrenergic receptor (Homo sapiens), P07550; Am2.2-beta2AR cells; reference of the scale not given here; response, % (test concentration not listed); hit rate 0.43% among 340,000; AID 504454, 2011;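 active means response above a set limit, near 3 SD of response in nonfluorescent compounds, cut at about 42% in these data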;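 further: stock transfer was 100 nL into about 11 µL; a reference agonist was the positive control; negative values mostly stem from fluorescent compounds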
Target sequence (P07550 whole entry, looked up): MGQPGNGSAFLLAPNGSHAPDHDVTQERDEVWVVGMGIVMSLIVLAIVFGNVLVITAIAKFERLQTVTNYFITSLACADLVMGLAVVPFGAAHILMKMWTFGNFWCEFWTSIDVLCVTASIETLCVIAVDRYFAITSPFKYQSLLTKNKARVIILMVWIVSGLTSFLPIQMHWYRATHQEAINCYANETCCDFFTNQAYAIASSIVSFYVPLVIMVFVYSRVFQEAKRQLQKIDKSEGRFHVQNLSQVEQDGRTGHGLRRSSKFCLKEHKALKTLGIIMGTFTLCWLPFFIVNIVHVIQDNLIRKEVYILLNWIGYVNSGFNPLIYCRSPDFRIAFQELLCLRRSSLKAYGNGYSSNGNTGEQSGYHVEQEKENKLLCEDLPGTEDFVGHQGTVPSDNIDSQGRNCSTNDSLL
HNF4A DNA FP: change in binding of human HNF4A to DNA, primary screen, biochemical, fluorescence polarization, FITC-DNA | AID 1224865, 2016 | 1 h | hit rate 0.3% among 360,000 | Hepatocyte nuclear factor 4-alpha (Homo sapiens), P41235 | activity change, % at 10 µM; in the data active means activity change above about 30%, passing the limit was not always enough;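 further: controls were the assay level and a saturating level of protein; the project sought stronger binding though the title names inhibitors; some compounds called inactive have numbers as strong as hits; positive values seem to mean higher polarization but the record does not say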
UCH37 DUB inh: inhibitors of human UCH37 deubiquitinase, primary screen, biochemical, Ub-AMC cleavage, fluorescence | Ubiquitin carboxyl-terminal hydrolase isozyme L5 (Homo sapiens), Q9Y5K5 | purified proteasome/UCH37 | inhibition, % (test concentration not listed) | AID 588478, 2011 | hit rate 0.33% among 330,000;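 active means mean of two replicates above 20%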;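 further: 0% = compound-free wells with enzyme and 100% = wells lacking proteasome; stock transfer was 100 nL into about 20 µL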
Target sequence (Q9Y5K5 whole entry, looked up): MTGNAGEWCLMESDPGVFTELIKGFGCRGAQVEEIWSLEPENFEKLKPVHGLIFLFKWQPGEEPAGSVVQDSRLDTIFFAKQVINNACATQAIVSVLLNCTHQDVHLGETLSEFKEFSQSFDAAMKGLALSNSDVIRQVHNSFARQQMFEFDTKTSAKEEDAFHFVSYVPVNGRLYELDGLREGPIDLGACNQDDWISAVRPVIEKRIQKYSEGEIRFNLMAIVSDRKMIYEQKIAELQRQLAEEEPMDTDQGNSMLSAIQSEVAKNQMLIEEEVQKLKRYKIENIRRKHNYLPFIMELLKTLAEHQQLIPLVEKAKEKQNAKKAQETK
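Material: Human UCH37 enzyme supplied as purified proteasome complex | Schedule: 30 min compound-proteasome preincubation then 25 min substrate reaction, room temperature | Detection: AMC fluorescence from Ub-AMC cleavage, excitation 355 nm, emission 460 nm | Benchmarks: Wells without proteasome as full block, compound-free enzyme plus substrate as uninhibited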
* = called active by the depositor; ? = inconclusive; nt = not tested or not shown; & = joins results of further samples. Compounds were not picked by outcome; overall some 2.1% were active at least once.

The line under a structure holds: Vif TR-FRET, LANA-H2A inh, A1 inh, Ecoli growth, B2AR ag, HNF4A DNA FP, UCH37 DUB inh
Cc1ccc2c(c1)C(=O)c1c(C(=O)O)cccc1-2
  2.2%, 3.9, -1.1, 0.711, -0.5, -2.7, 1.9
CC(=O)Nc1ccc(NC(=O)N(c2ccccc2)c2ccccc2)cc1
  -1.3%, 0.4, 0.1, 0.692, 0.6, 1.1, 5.9
COc1cc(C(CC(=O)Nc2cc(C)ccn2)N2Cc3ccccc3C2=O)cc(OC)c1OC (stereo not given)
  -0.5%, 3.3, 0.1, 0.683, 8.2, 3.9, -0.5
Cc1ccc(CSc2nc3c(c(=O)[nH]2)CCC3)cc1
  -3.4%, -11.2, 0.3, 0.737, 0.3, -2.5, 1.3
O=C1COc2ccc(C(=O)COC(=O)Cc3ccsc3)cc2N1
  -2.6%, -0.8, 1.3, 0.66, 0.3, -0.5, -0.8
O=C(c1cccc(C(=O)N2CCC(O)(c3ccccc3)CC2)c1)N1CCC(O)(c2ccccc2)CC1
  nt, -2.6, 1.6, 0.684, 8.9, 2.5, 3.4
CC(=O)NC(Cc1ccccc1)C(C)=O (stereo not given)
  -5.0%, -5.1, -0.1, 0.698, -1.1, -3.2, -0.2
CC(C)CCC1(CCNC(C)c2cccs2)CCOC(C)(C)C1 (stereo not given)
  -7.8%, -16.7, -0.4, nt, 5.8, 2.1, nt
O=C(NC1=NCCS1)c1cccc(NC(=O)c2ccco2)c1
  9.0%, -6.6, -0.4, 0.652, 17.6, -0.6, 0.4
Cc1ccc(N=C2N=C(N)c3ccccc32)c(C)c1
  ?, -2.8, -0.1, 0.716, 1.2, -1.7, 8.7
Cc1ccc(Cn2nc(C)c(NC(=O)c3cc(C)no3)c2C)cc1
  -0.6%, 0.9, 0.4, 0.722, 8.9, 0.0, 2.3
COc1cccc(C2CC3(CC(C)(C)NC(=S)N3)Oc3cc(O)ccc32)c1 (stereo not given)
  -3.9%, 1.9, 1.2, 0.694, 1.4, 17.5, 2.8
O=C(Nc1ccc(Cl)cc1)c1ccc(OCC2CCCO2)cc1 (stereo not given)
  -9.1%, -1.2, 1.7, 0.634, -2.3, 1.6, 1.1
Cc1ccc(/C=N/Nc2nc(N3CCOCC3)nc(N3CCOCC3)n2)o1
  nt, 7.4, 0.2, nt, 0.2, 0.2, nt
COc1ccc(N2CCN(C(=O)CSc3ncccc3-c3nc4ccccc4[nH]3)CC2)cc1
  1.6%&1.4%, -0.7, -1.3, 0.691, -2.5, 26.0, -50.5
O=C(C[n+]1ccc(CCSc2ccc(F)cc2)cc1)c1ccccc1
  ?, -14.2, 1.1, 0.648, 7.2, 127.9, 5.1
O=C(O)CSc1nnnn1-c1ccccc1
  2.8%, 0.3, 0.2, 0.712, 4.3, 0.8, -0.3
Cc1nnc(SCC(=O)Nc2cc(Cl)ccc2Cl)n1CC1CCCO1 (stereo not given)
  -11.4%, 6.6, 0.1, 0.681, -5.8, 0.9, -0.7
Cc1cc(C)nc(N2CCCC(C(=O)NCCC3=CCCCC3)C2)n1 (stereo not given)
  8.3%, 1.0, 0.1, 0.699, -4.6, 3.9, 2.8
Cc1ccc(/C=C/C(=O)OCC(=O)N2CC(=O)Nc3ccccc32)o1
  nt, 3.1, 0.0, 0.646, 10.7, 4.5, 5.4
CC(C)(C)c1cc(CN2CCC(O)CC2)cc(C(C)(C)C)c1O
  -2.1%, -0.4, 0.3, 0.726, 8.8, -2.7, 2.3
O=C(N/N=C/c1ccc(N2CCOCC2)cc1)c1ccc(O)cc1
  nt, 2.7, -3.4, nt, 0.8, 9.2, nt
COCCC(=O)N1CCC(Oc2ccc(C(=O)N(C)CCCC3CCCC3)cc2)CC1
  -3.5%, -2.3, -0.7, 0.645, 1.0, 2.5, -1.5
CC(=O)Nc1sc(C)c(C)c1C(=O)OCC(=O)Nc1cc(S(=O)(=O)N2CCCCC2)ccc1Cl
  ?, 1.5, -0.8, 0.706, 4.8, 1.5, -29.6
COCCNC(=O)C(c1ccc(C)cc1)N(Cc1cccs1)C(=O)CCC(=O)Nc1ccccn1 (stereo not given)
  nt, 6.4, -0.4, 0.7, 4.6, -5.2, -5.9
Cc1ccc(OCCC(=O)Nc2ccc(F)c(F)c2)cc1
  -2.9%, -2.2, -0.4, 0.657, -5.3, -1.1, 2.3
Brc1ccc(OCCCOc2cccc3cccnc23)cc1
  nt, 0.2, 0.2, 0.684, -0.6, 2.3, 2.5
CN(C)c1cc2c(c(N(C)C)c1)C(=O)c1ccccc1C2=O
  6.9%, 1.5, 0.4, 0.682, -23.0, -2.7, 6.6
CCCN1CCN(C(=O)c2ccc(-c3ccc([N+](=O)[O-])cc3)o2)CC1
  nt, 3.5, -0.3, 0.672, -6.0, -6.7, 8.9
S=c1[nH]ncn2c1cc1oc3ccccc3c12
  -76.6%, 4.9, -0.1, 0.721, 0.5, 3.2, 6.3
C=CCn1cccc(C(=O)Nc2ccc(F)cc2)c1=O
  -10.0%, -5.0, -0.3, 0.615, 0.6, 2.6, 6.6
Nc1ncnc2c1ncn2[C@@H]1O[C@H](CO)C[C@H]1O
  nt, -9.8, ?, nt, 13.1, 2.8, 0.5
COC(=O)c1cc(S(=O)(=O)N2CCCCC2C)c[nH]1 (stereo not given)
  nt, -0.7, 0.3, 0.687, 0.0, 5.9, 5.1
Cc1ccc(C2CC(=O)Nc3cc4c(cc32)OCO4)o1 (stereo not given)
  -2.0%, 1.0, -0.6, 0.664, -3.6, 3.6, -0.2
O=C(CSc1ccc(Cl)cc1)OCC(=O)N1CCN(c2ccccc2)CC1
  6.0%, nt, nt, 0.661, -1.4, 1.2, 1.5
C=CCC(NCc1ccco1)c1ccc(OC)cc1 (stereo not given)
  -3.4%, -1.2, -0.5, 0.69, 18.0, 2.1, 0.7
Cc1ccc(-n2c(C)cc(C)c(C#N)c2=O)cc1C
  -0.6%, 0.9, -0.5, 0.681, 2.1, -6.3, -6.2
CCCN1CCc2c(sc(NC(=O)C3CCN(S(=O)(=O)c4cccs4)CC3)c2C(N)=O)C1
  5.4%, 2.1, -0.8, 0.621, 6.8, -0.8, -5.2
CCCC(CCC(=O)NC1CCCCC1)C(=O)O (stereo not given)
  -1.9%, 4.0, -0.1, 0.704, 2.0, 2.8, 3.7
O=C(c1cc2ccccc2o1)N(Cc1nnc(-c2ccccc2Cl)o1)C1CC1
  -1.6%, 4.2, 0.1, 0.689, 6.0, 2.9, 0.2
CN(C)C(=O)c1cc(F)ccc1Sc1cc(Cl)ccc1Cl
  2.8%, 0.4, 1.7, 0.791, 11.2, -1.9, 0.0
COc1ccc(CCNC(=O)COC(=O)/C=C/c2ccc3c(c2)OCO3)cc1OC
  nt, -5.8, -4.1, 0.714, 3.5, 0.3, -24.2
Cc1ccc(OCCSc2nc3ccccc3n2CC(=O)O)c(C(C)C)c1
  2.6%, -5.3, ?, 0.722, 3.5, -2.5, 3.7
O=C(NCCN1CCc2ccccc2C1)C1CC(=O)N(C2CCCC2)C1 (stereo not given)
  1.4%, -0.4, 1.0, 0.731, 0.7, 1.1, 3.6
COc1ccc(N=C2NC(=O)/C(=C/c3ccco3)S2)cc1
  ?, 0.2, -0.2, 0.63, 1.9, -0.4, 0.7
COc1ccc(OCC(=O)N/N=C\c2ccco2)cc1
  5.2%, 0.8, -0.4, nt, -5.0, -3.2, nt
CCc1cccc2c1NC(=O)[C@]21[C@@H]2C(=O)N(Cc3ccccc3)C(=O)[C@@H]2[C@@H]2CCCN21
  25.1%, -3.0, 0.4, 0.76, -0.5, 6.6, 2.5
Cc1ccc(-n2nc(CN3CCOCC3)c(-c3ccccc3)c2N)cc1Cl
  10.4%, -2.3, 0.3, 0.669, -29.4, -1.1, 3.5
COc1ccc2c(c1)C=C(CN1CCC(CO)(CCc3ccccc3)CC1)CO2
  17.3%, -11.9, 0.3, 0.622, 14.6, 6.2, -2.0
CCOc1ccc2nc(SC3CC(=O)N(c4ccc(C)cc4)C3=O)sc2c1 (stereo not given)
  1.5%, 1.6, 0.4, 0.722, -2.5, 0.8, 1.5
Cc1nn(Cc2ccccc2Cl)c(C)c1C(=O)NCC(c1cccs1)N1CCOCC1 (stereo not given)
  nt, 2.8, -0.5, nt, -5.4, 0.6, nt
CC(Oc1cccc2cccnc12)C(=O)N/N=C/c1ccc2c(c1)OCO2 (stereo not given)
  147.7%, 3.9, 0.3, nt, -26.2, 0.7, nt
COc1ccc([C@H]2CC(=O)C=C(c3cccc(OC(F)(F)F)c3)C2)cc1
  nt, 1.3, -1.6, nt, -3.5, 2.0, 0.8
Cc1ccc(S(=O)(=O)N(Cc2cc3ccccc3[nH]c2=O)CC2CCCO2)cc1 (stereo not given)
  nt, 4.4, -0.1, 0.644, -13.7, 4.1, 1.6
Cc1ccc2[nH]cc(S(=O)(=O)c3ccc(C)c(C)c3)c(=O)c2c1
  -11.4%, 3.1, -0.1, 0.682, 5.5, 0.6, -5.1
O=C(NCCCl)Nc1ccc(Cl)c([N+](=O)[O-])c1
  -3.1%, 8.7, 0.2, 0.596, 5.8, 4.3, 2.3
O=[N+]([O-])c1cccc(CN2CCN(c3cccc4[nH]ccc34)CC2)c1
  0.7%, 3.7, 0.2, 0.659, 4.5, -0.2, 3.0
Cc1nn(C2CCCCC2)c(N)c1-c1ccccc1
  0.8%, 2.0, 1.3, 0.697, 3.3, -2.2, 0.9
Nc1ncnc(Sc2ncccn2)c1[N+](=O)[O-]
  ?, nt, nt, 0.67, 21.5, -3.2, 10.6
COC(=O)c1ccc(Cn2cnc3c(Cl)ncnc32)cc1
  -4.4%, nt, nt, 0.657, 2.8, 0.0, 0.3

Later entries
The line under a structure holds: Vif TR-FRET, LANA-H2A inh, A1 inh, Ecoli growth, B2AR ag, HNF4A DNA FP, UCH37 DUB inh
COc1cc(/C=N/NC(=O)CCn2nnc3ccccc32)ccc1O
  nt, 3.1, -0.5, nt, 6.8, -1.8, nt
COc1ccccc1/C=N/OC(=O)c1ccc(C)cc1
  18.4%, -4.8, -0.4, nt, -3.2, 2.9, nt
O=S(=O)(NOCc1ccc(Cl)cc1)c1ccc(Cl)cc1
  -6.4%, 2.1, 0.1, 0.688, 1.7, 1.3, 2.7
Cc1cc(C)c(C(=O)/C=C/c2cccc3ccccc23)c(=O)[nH]1
  nt, -0.6, 0.9, 0.657, 4.8, 2.9, 3.1
COc1ccccc1C(=O)NCCC(=O)NC1=NCCS1
  nt, 0.3, 0.1, 0.709, -0.1, 1.3, 4.0

Source: PubChem (several laboratories)
